A1 inh = caspase 3/7 activation in MEF A1-2A-BIM cells, primary screen, A1 inhibitor project, cell-based, luminescence, HTS; Caspase-Glo 3/7 luminescence, 3 h; percent of clofoctol response, vehicle zero; caspase activation, % (no concentration beside the values); 0.066% of 330,000 active; AID 2462, 2010;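 active = over half of replicate activation scores above 10%, or exactly half above 10 with the replicate mean above 10; inconclusive = replicate mean below 10 yet half the replicates above 10; inactive = over half of replicates below 10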;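 also: wells of about 30 µL received 50 nL stock; many hits fall short of the cut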
B2AR ag = beta2AR agonists driving receptor internalization, primary screen, cell-based, FAP fluorogen, flow cytometry. Am2.2-beta2AR cells; reference of the scale not given here. response, % (test concentration not listed). 0.43% of 340,000 active. AID 504454, 2011;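 active = response above a set limit, near 3 SD of response in nonfluorescent compounds, cut at about 42% in these data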;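 also: stock transfer was 100 nL into about 11 µL; a reference agonist was the positive control; negative values mostly stem from fluorescent compounds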
UCH37 DUB inh = inhibitors of human UCH37 deubiquitinase, primary screen, biochemical, Ub-AMC cleavage, fluorescence; Ubiquitin carboxyl-terminal hydrolase isozyme L5 (Homo sapiens), Q9Y5K5; purified proteasome/UCH37; inhibition, % (test concentration not listed); AID 588478, 2011; 0.33% of 330,000 active;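 active = mean of two replicates above 20%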;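 also: 0% = compound-free wells with enzyme and 100% = wells lacking proteasome; stock transfer was 100 nL into about 20 µL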
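Material: human UCH37 enzyme supplied as purified proteasome complex. Measure: % inhibition of Ub-AMC cleavage fluorescence. Medium: pH 7.4 Tris-HCl (50 mM) with ovalbumin, ATP-MgCl2, DTT. Times: 30 min preincubation with enzyme, 25 min cleavage at room temperature. Detection: AMC fluorescence intensity at 355/460 nm.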
Beta apoptosis = inhibitors of cytokine-induced beta cell apoptosis, primary screen, luminescence; INS-1E cytokine-induced death, ATP luminescence, 48 h; percent of positive-control rescue, neutral wells zero; 0.8% of 300,000 active; protection from apoptosis, % (concentration not given with the values);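 active = all replicates at 75% or more, or half of them and the mean; inconclusive = half reach 75% but not the mean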;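 also: 0% = cytokine-treated negative control wells and 100% = positive control rescue; higher means more ATP so stronger rescue from cytokine killing; wells of about 40 µL received 100 nL stock; the first replicate is given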
Calb FLC = C. albicans growth inhibition with fluconazole, primary screen, CaCi-2 strain, Alamar Blue fluorescence. C. albicans CaCi-2 (fluconazole-resistant clinical isolate) + fluconazole, 48 h. growth inhibition, % (concentration not given with the values). 0.57% of 300,000 active. AID 1979, 2009;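 active = most replicates above 75%; inconclusive = exactly half above 75%; inactive = most below 75%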;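 also: all wells also contain fluconazole at 8 µg/ml as a sub-toxic cotreatment; 0% = median of DMSO wells and 100% = median of geldanamycin control wells; wells of about 8 µL received 7.5 nL stock; the first replicate is given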
T cruzi inh = inhibitors of intracellular T. cruzi growth, primary screen, luminescence, NIH3T3 host cells; T. cruzi beta-gal in NIH3T3, 90 h; 1.4% of 300,000 active; inhibition, % (concentration not given with the values);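 active = mean inhibition across valid replicates above about 55%, limit read from the data; inconclusive = mean below that limit but half or more replicates reach it; inactive = mean below it, under half of replicates reach it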;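 also: signal also drops with host cell toxicity which is not excluded here; 0% = plate median of DMSO wells and 100% = zero luminescence signal; higher percent means less beta-gal luminescence so fewer parasites; stock transfer was 50 nL into about 50 µL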
LANA-H2A inh = blockers of LANA interaction with H2A/H2B – biochemical, FP readout, HTS, primary screen; Protein LANA1 (Human herpesvirus 8 type P (isolate GK18)), Q9QR71; cell-free LANA-H2A/H2B peptide, fluorescence polarization; inhibition, % (concentration not given with the values); 0.6% of 320,000 active; in the data active = inhibition mostly above about 10%, no sharp cut-off; inactive = mostly below about 6.7%;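 also: stock transfer was 7.5 nL into about 10 µL; 0% = median of vehicle wells and 100% = median of positive control wells; one replicate is shown; the record names a cut of 25% in any replicate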
Target sequence (Q9QR71 whole entry, looked up): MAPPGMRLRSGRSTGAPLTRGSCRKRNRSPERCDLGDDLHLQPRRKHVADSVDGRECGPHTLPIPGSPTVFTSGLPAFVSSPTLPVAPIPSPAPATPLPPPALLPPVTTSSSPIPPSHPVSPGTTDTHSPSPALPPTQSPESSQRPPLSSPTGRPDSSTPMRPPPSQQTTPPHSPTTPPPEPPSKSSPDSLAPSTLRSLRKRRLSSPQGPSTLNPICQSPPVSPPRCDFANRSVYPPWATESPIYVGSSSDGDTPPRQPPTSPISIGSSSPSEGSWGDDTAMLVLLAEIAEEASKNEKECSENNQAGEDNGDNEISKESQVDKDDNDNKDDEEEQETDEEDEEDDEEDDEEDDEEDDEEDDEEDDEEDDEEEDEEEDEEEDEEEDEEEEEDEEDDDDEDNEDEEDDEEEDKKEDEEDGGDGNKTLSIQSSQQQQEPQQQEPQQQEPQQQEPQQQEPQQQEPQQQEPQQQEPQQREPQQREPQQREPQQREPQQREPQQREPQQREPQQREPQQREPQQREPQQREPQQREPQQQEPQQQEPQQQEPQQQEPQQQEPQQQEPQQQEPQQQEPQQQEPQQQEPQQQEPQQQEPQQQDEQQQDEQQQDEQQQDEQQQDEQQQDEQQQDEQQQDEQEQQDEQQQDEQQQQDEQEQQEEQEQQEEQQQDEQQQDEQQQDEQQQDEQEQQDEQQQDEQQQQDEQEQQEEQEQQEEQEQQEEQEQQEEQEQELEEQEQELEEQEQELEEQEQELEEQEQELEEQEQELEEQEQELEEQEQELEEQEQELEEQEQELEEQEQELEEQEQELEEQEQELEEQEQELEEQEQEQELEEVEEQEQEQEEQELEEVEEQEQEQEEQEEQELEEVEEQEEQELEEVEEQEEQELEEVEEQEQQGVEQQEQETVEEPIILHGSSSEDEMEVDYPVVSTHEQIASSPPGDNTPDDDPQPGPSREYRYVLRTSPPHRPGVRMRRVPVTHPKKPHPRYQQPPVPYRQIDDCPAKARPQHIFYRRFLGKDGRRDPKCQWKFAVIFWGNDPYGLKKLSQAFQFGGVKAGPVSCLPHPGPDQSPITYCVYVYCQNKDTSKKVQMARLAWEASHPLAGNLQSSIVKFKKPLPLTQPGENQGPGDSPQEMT
RanGTP-Imp inh = inhibitors of RanGTP-importin-beta interaction, primary screen, biochemical, FRET, CFP-Ran, YFP-importin-beta, homogeneous; Ran GTPase (GTP-bound) - importin-beta complex; cell-free CFP-Ran/YFP-importin-beta FRET ratio; inhibition, % (test concentration not listed); 1.1% of 300,000 active;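 active = most replicates above 15%; inconclusive = exactly half above 15%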;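 also: 0% = DMSO wells and 100% = Ran loaded with GDP instead of GTP; wells of about 40 µL received 100 nL stock; the first replicate is given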
Active calls of the source: *; i = inactive; ? = inconclusive; / = no result given.

SMILES	A1 inh	B2AR ag	UCH37 DUB inh	Beta apoptosis	Calb FLC	T cruzi inh	LANA-H2A inh	RanGTP-Imp inh
O=C(Nc1nc(-c2ccccc2)cs1)C1CCCCN1S(=O)(=O)c1ccc(Cl)cc1 (stereo not given)	-1.7	-4.8	1.0	17.2	-3.5	77.8*	-2.8	0.4
COCC1CCCCN1C(=O)CCCn1nnnc1CN1CCC(C)CC1 (stereo not given)	0.2	2.5	3.7	3.8	-1.0	-3.2	1.2	2.2
CCc1ccccc1Nc1cc(C(=O)NCc2ccccn2)c2ccccc2n1	1.4	2.3	-7.2	5.2	16.4	-16.1	-0.2	2.0
COc1ccc(S(=O)(=O)N2CCC(N3CCN(c4ccccc4OC)CC3)CC2)cc1	-0.6	4.1	2.1	-2.3	-19.4	9.9	-4.9	8.1
O=S(=O)(Nc1ccc(F)cc1)c1cccc2nsnc12	0.0	5.1	1.2	-0.6	-13.4	-6.3	0.6	-1.7
CC(Oc1ccc(Br)cc1Br)C(=O)NC1CCCC1 (stereo not given)	1.6	/	1.1	-1.2	2.9	-4.2	4.2	1.7
Cc1cc(Cl)ccc1NC(=S)NCc1ccccc1Cl	1.4	4.7	2.3	2.6	-0.8	31.2	4.8	4.5
Cc1ccc(N(CCC(=O)O)S(=O)(=O)c2ccccc2)cc1	-0.6	2.3	0.3	-12.5	2.6	-3.8	6.5	-5.2
O=C(CN1CCCCCC1)N1c2ccccc2Sc2ccc(C(F)(F)F)cc21	0.8	-2.5	6.7	2.8	-7.8	38.9	-0.9	2.8
COC(=O)c1cccc(NC(=O)c2ccco2)c1	1.1	-1.5	-1.9	-4.6	0.4	6.7	1.6	2.2
O=C(CN1C(=O)C(=O)c2ccccc21)c1ccc(Cl)cc1	2.5	3.4	2.7	-4.0	-27.0	-11.1	-4.0	1.5
Cc1ccc(-n2nc3c(c2NC(=O)C2CC2)CS(=O)(=O)C3)cc1	0.1	1.6	2.2	-1.8	12.5	-3.0	2.7	5.5
C=CCN=c1scc(-c2ccco2)n1/N=C/c1ccc(O)c(O)c1O	-4.0	26.8	/	4.9	-4.6	-4.3	10.1	4.5
COc1ccc(C(C)=O)cc1COC(=O)CCC(=O)c1cccs1	0.6	-5.6	-0.2	-2.7	/	/	-4.9	/
COc1ccc(-n2c(Cc3cccn3C)nnc2SCC(=O)Nc2nc(C)cs2)cc1	-1.3	-0.2	0.6	-2.7	3.8	11.6	1.2	?
Cc1cc(NC(=O)c2ccco2)c(=O)n(Cc2cccc(C(F)(F)F)c2)c1	0.5	-9.8	-4.4	-1.5	9.0	15.5	0.7	0.7
Cc1ccc(C)c(S(=O)(=O)N2CCCC2CNC(=O)C(=O)NCc2cccs2)c1 (stereo not given)	-0.5	-11.2	2.1	/	-2.7	-5.1	-0.3	-4.0
CC1=C/C(=N\NC(=O)c2ccccc2)CC1	-0.2	3.3	/	-3.7	-1.3	-1.4	-7.0	-1.9
c1ccc(-c2nc(NCc3cccnc3)c3ccccc3n2)cc1	-0.2	-19.4	0.7	-0.6	-0.7	37.0	1.8	1.5
C/C(=N\NC(=O)c1cc(C)oc1C)c1ccc2ccccc2c1	0.3	5.8	/	9.0	1.6	10.8	-4.1	0.7
COc1ccc2no[n+]([O-])c2c1	0.0	/	/	-2.9	5.4	-8.6	2.3	5.6
Cc1ccc(C(=O)NNC(=O)CSc2n[nH]c(-c3cccnc3)n2)cc1	-0.1	7.5	-3.0	0.0	1.4	-14.7	4.9	6.5
CCCc1cc(=O)oc2c(CN3CCOCC3)c(O)ccc12	0.7	-7.2	i	-1.9	-6.6	-5.3	0.1	5.0
CSCC[C@H](N)C(=O)N1CCC(C(=O)N[C@@H](Cc2c[nH]c3ccccc23)C(=O)O)CC1	0.0	-4.2	-1.4	-1.5	-5.5	-4.4	-2.3	1.8
COc1ccc(NC(=O)c2ccc(Br)o2)cc1	-6.8	1.5	40.5*	4.7	-3.8	-0.2	2.5	-1.5
CCOC(=O)c1[nH]c(C)c(C(=O)Nc2cc(OC)ccc2OC)c1C	0.0	10.0	0.0	16.1	1.7	-18.7	-1.1	6.5
COc1ccc(CC(=O)N2CC(=O)N(CCc3ccccc3)C(=O)C2)cc1	0.2	14.7	5.1	-5.3	-0.3	7.3	0.0	0.3
N/C(=N\OC(=O)CCCOc1ccccc1)c1ccncc1	-0.9	4.1	1.5	-12.8	2.3	9.5	1.7	?
COc1ccc(S(=O)(=O)NC2(C(F)(F)F)NC(=O)N(CCc3ccc(OC)c(OC)c3)C2=O)cc1 (stereo not given)	0.2	-0.3	-1.7	1.1	22.7	-18.9	2.5	-1.7
CC1=NN(C(=O)CSCc2ccccc2)C(O)(c2ccc(F)cc2)C1 (stereo not given)	0.9	0.6	21.8*	0.3	-8.8	5.8	-2.5	-1.9
Fc1ccc(F)c(NC(=S)NCCc2ccccc2)c1	-0.5	-3.5	2.4	25.0	-25.2	2.2	0.1	2.0
COc1cccc(CNC(=O)c2nnn(CC(=O)Nc3cccc(C)c3)c2N)c1	-0.2	-0.5	4.8	-4.3	-1.9	3.3	1.4	-2.3
CN1CCCC(OC(=O)c2cccc(Br)c2)C1 (stereo not given)	0.2	5.7	0.2	2.4	-1.0	3.4	-0.1	-1.9
CC(C)(C)NCC(O)(c1ccc(Cl)cc1)c1ccc(Cl)cc1	-0.5	0.4	1.9	19.8	-18.7	3.8	1.5	4.5
CC(C)c1ccc(C(C(=O)NC2CCCCC2)N(C(=O)c2ccccn2)c2cccnc2)cc1 (stereo not given)	-0.3	-3.0	-1.3	2.4	-4.1	13.7	-0.2	-5.3
CCc1c(C)sc(NC(=S)N2CCN(S(C)(=O)=O)CC2)c1C(=O)OC	0.2	-5.6	3.0	2.6	0.7	17.7	1.7	-2.6
CCc1cc2c(=O)c(-c3nc(C)cs3)c(CCCC(=O)O)oc2cc1O	0.1	1.0	-0.6	-6.0	21.7	-4.9	-13.6	-2.4
O=C(Nc1ccccc1Sc1ccccc1)c1ccccc1F	-0.3	0.4	0.7	-1.7	-9.2	0.7	-2.3	?
O=C(/C=C/c1cccnc1)c1cc(F)ccc1O	0.5	-4.7	4.7	-3.7	-12.7	0.3	4.9	1.3
CCn1cc(C(=O)NCc2ccc3c(c2)OCO3)c(=O)c2cc(S(=O)(=O)N3CCOCC3)ccc21	0.1	-17.5	3.4	2.7	33.1	12.9	4.7	-0.8
COC(=O)Cn1cc(C(=O)OC)cc(Br)c1=O	1.8	-2.0	-1.0	-5.7	5.1	-11.4	2.8	?
O=C(CCc1cccc(Cl)c1)N1CCCC(Nc2ccccc2)C1 (stereo not given)	0.3	-0.1	/	3.9	13.2	29.9	-1.6	-1.0
COc1ccc(/C=C2\SC(=O)N(CCn3cnnn3)C2=O)cc1	0.6	-3.3	7.5	-6.4	29.5	-0.9	2.9	4.1
O=C(Nc1nnc(-c2ccc(Cl)s2)o1)C1CC1	-0.1	-9.1	4.1	-9.9	?	-11.0	-3.5	-1.4
CCOc1cc(C2NC(=O)N(C)C(C)=C2C(=O)OC)cc(Br)c1O (stereo not given)	1.2	3.9	-0.5	12.0	?	-16.1	-1.1	-4.0
O=P(O)(c1ccccc1)c1ccccc1O	1.0	1.9	-0.9	0.7	7.4	-4.5	0.0	-1.6
COc1ccc(CNC(=O)c2ccc(N3CCC4(CC3)CC(c3ccc(Cl)cc3)=NO4)c([N+](=O)[O-])c2)cc1	0.4	-1.5	5.6	28.6	1.7	42.2	5.0	5.5
Cc1ccc(-n2c(=O)c3sccc3n(CC(=O)NC3CCCCC3)c2=O)cc1	-0.3	-5.2	0.3	-1.4	-4.6	1.5	-1.8	4.0
Cc1oc(C(C)(C)C)cc1-c1cc(NC(=O)c2ccc([N+](=O)[O-])cc2)n[nH]1	0.1	4.7	2.2	4.8	0.0	6.8	0.2	0.8
COc1ccccc1/C=N\NC(=O)c1c(C)nc2ccc(Cl)cn12	-0.7	5.8	/	-5.1	-28.3	2.3	6.5	-3.5

The list continues.
SMILES	A1 inh	B2AR ag	UCH37 DUB inh	Beta apoptosis	Calb FLC	T cruzi inh	LANA-H2A inh	RanGTP-Imp inh
CS(=O)(=O)N1CCN(c2ccc(NC(=O)C(c3ccccc3)c3ccccc3)cc2)CC1	1.1	8.9	0.8	/	4.4	-10.0	-1.6	4.2
CC(C)CNC(=O)c1cc(-c2ccco2)on1	1.2	-0.6	0.0	3.4	-3.3	-6.3	0.7	-2.2
Cc1ccc(C(=O)N[C@@H](C)CN2C3=NC[C@H](C)N3C[C@H]2Cc2ccc(O)cc2)cc1Br	/	/	4.5	/	-14.8	-5.9	/	0.2
Cc1cc(C)cc(NS(=O)(=O)c2ccc3[nH]c(=O)[nH]c3c2)c1	0.4	-8.0	4.8	-4.5	?	1.0	-2.2	0.0
O=C1C(=O)c2ccccc2C([O-])=C1[n+]1ccccc1	0.4	-13.6	19.4	-5.3	-24.8	-9.9	0.1	-0.6
Cc1cccc(OCC(=O)NNC(=O)CCc2ccccc2)c1	/	8.2	4.9	/	1.1	-11.5	/	?
Cc1ccc(C(=O)O/N=C(\N)c2ccccn2)cc1	-7.2	-3.0	0.0	-0.7	-1.6	3.8	-1.9	-1.2
Cc1c(C(=O)NC2CCN(Cc3ccccc3)C2)oc2c(Cl)cccc12 (stereo not given)	-0.1	1.4	4.6	7.0	-21.5	31.1	-1.8	-2.1
COc1ccc(OC)c(S(=O)(=O)Nc2cccc(-c3ccc(N4CCCCCC4)nn3)c2)c1	-0.7	11.5	1.5	10.3	-5.2	10.8	-2.0	0.1
O=C(Nc1ccccc1-c1nnc(SCc2ccccc2Cl)o1)c1ccccc1	0.9	-0.5	-13.1	/	-33.9	31.8	1.5	2.5
Cc1c(NC(=O)c2cc(-c3ccc(O)cc3)on2)c(=O)n(-c2ccccc2)n1C	0.8	1.6	3.1	-2.1	-6.9	5.6	1.9	-3.7
O=S(=O)(NCCC1=CCCCC1)c1cccc(S(=O)(=O)N2CCOCC2)c1	0.7	7.1	58.0*	11.8	-24.4	-12.7	0.4	-2.8
COc1ccc(CNC(=O)C2CSCCS2)cc1 (stereo not given)	0.6	18.2	1.3	-1.3	5.3	-0.6	-7.9	1.1
Cc1oc2c(c1C(=O)c1ccccc1)C(=O)C(=O)c1ccccc1-2	-0.4	98.5*	49.2*	103.8*	2.9	18.6	-0.2	-4.5
O=C(CN1CCN(Cc2ccccc2)CC1)Nc1ccc(Cl)cc1	-0.3	-5.4	1.9	-2.6	0.1	0.0	1.3	-3.7
COc1ccc(N(C(=O)c2ccncc2)S(=O)(=O)c2cccc([N+](=O)[O-])c2)cc1	0.1	-10.4	2.8	-2.1	8.0	-10.0	-4.2	4.8
